Ecoli rRNA inh – reduced GFP signal of wild-type E. coli, primary screen, bacterial rRNA inhibitor project, GFP/RFP fluorescence, OD600, single point; GFP signal change (wild-type ribosome), % (test concentration not listed); 1.6% of 350,000 active; E. coli WT GFP vs humanized-ribosome RFP mutants, 24 h; active compounds read low; DMSO median 0, no signal -100;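 active = significant combined selectivity score with lowered wild-type GFP, culture density cut under 30%, mutant RFP and density less affected; inactive = any of these conditions unmet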; also: one replicate is shown; some compounds called inactive have numbers as strong as hits
RanGTP-Imp inh – inhibitors of RanGTP-importin-beta interaction, primary screen, biochemical, FRET, CFP-Ran, YFP-importin-beta, homogeneous; inhibition, % (test concentration not listed); 1.1% of 300,000 active; Ran GTPase (GTP-bound) - importin-beta complex; AID 2216, 2009; cell-free CFP-Ran/YFP-importin-beta FRET ratio;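 active = most replicates above 15%; inconclusive = exactly half above 15%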;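 also: 0% = DMSO wells and 100% = Ran loaded with GDP instead of GTP; wells of about 40 µL received 100 nL stock; the first replicate is given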
Beta apoptosis – inhibitors of cytokine-induced beta cell apoptosis, primary screen, luminescence. INS-1E cytokine-induced death, ATP luminescence, 48 h; percent of positive-control rescue, neutral wells zero. 0.8% of 300,000 active. protection from apoptosis, % (test concentration not listed);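 active = all replicates at 75% or more, or half of them and the mean; inconclusive = half reach 75% but not the mean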;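 also: 0% = cytokine-treated negative control wells and 100% = positive control rescue; higher means more ATP so stronger rescue from cytokine killing; wells of about 40 µL received 100 nL stock; the first replicate is given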
T cruzi repl – inhibitors of intracellular T. cruzi growth, primary screen, luminescence, NIH3T3 host cells. inhibition, % (test concentration not listed). T. cruzi beta-gal in NIH3T3, 90 h. AID 1885, 2009. 1.4% of 300,000 active;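 active = mean inhibition across valid replicates above about 55%, limit read from the data; inconclusive = mean below that limit but half or more replicates reach it; inactive = mean below it, under half of replicates reach it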;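 also: signal also drops with host cell toxicity which is not excluded here; 0% = plate median of DMSO wells and 100% = zero luminescence signal; higher percent means less beta-gal luminescence so fewer parasites; stock transfer was 50 nL into about 50 µL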
MLL AF4-AF9 inh – inhibitors of AF4 peptide binding to AF9, primary screen, biochemical, AlphaScreen, biotin-AF4 peptide, FLAG-AF9, single point; Protein AF-9 (Homo sapiens), P42568; inhibition, % at 10 µM; 0.47% of 350,000 active; AID 651704, 2012;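 active = every replicate reaching a set inhibition limit, whatever the replicate mean, cut at about 25% in these data; inconclusive = mean inhibition reaches that limit but some replicates miss it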;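 also: 0% = plate neutral control median and 100% = total signal loss; the record names both 10 and 1 µM as test concentration; the first replicate is given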
Target sequence (P42568 whole entry, looked up): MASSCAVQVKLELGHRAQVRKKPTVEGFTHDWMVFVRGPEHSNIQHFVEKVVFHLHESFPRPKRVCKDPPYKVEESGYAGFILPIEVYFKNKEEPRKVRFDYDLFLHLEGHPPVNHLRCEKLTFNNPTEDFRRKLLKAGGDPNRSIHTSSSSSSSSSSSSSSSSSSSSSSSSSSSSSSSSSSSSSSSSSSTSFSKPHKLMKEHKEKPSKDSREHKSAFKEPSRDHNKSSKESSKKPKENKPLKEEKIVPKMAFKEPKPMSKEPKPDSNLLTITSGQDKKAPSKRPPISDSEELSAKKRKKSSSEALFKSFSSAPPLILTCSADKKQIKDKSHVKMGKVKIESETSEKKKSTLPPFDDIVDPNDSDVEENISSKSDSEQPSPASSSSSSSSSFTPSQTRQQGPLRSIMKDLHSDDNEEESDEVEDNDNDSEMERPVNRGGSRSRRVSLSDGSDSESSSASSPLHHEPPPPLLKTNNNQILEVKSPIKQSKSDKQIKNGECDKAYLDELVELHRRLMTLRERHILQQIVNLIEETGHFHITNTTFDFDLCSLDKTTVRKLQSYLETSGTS
Calb FLC – C. albicans growth inhibition with fluconazole, primary screen, CaCi-2 strain, Alamar Blue fluorescence; C. albicans CaCi-2 (fluconazole-resistant clinical isolate) + fluconazole, 48 h; growth inhibition, % (concentration not given with the values); 0.57% of 300,000 active;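 active = most replicates above 75%; inconclusive = exactly half above 75%; inactive = most below 75%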;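 also: all wells also contain fluconazole at 8 µg/ml as a sub-toxic cotreatment; 0% = median of DMSO wells and 100% = median of geldanamycin control wells; wells of about 8 µL received 7.5 nL stock; the first replicate is given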
ALR H2O2 inh – inhibitors of human ALR sulfhydryl oxidase, primary screen, biochemical, H2O2 detection, HRP-luminol luminescence, single point; purified ALR, DTT oxidation; inhibition, % (concentration not given with the values); 3.8% of 290,000 active;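 active = mean and each replicate at 75% or more; inconclusive = only one of the two met; inactive = neither met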;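 also: stock transfer was 7.5 nL into about 7.5 µL; 0% = neutral wells and 100% = wells with inactivated enzyme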
Target sequence (P55789 whole entry, looked up): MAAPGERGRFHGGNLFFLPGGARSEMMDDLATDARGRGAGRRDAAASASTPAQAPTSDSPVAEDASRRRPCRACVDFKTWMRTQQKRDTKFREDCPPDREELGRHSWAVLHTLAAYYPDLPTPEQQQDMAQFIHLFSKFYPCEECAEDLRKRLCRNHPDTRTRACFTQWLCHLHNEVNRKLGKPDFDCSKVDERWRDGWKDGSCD
FGF22 binding – binders of human FGF22 protein, primary screen, FGF22 synaptogenesis inhibitor project, biophysical, thermal shift, single point | calls only at 9.99 µM | Fibroblast growth factor 22 (Homo sapiens), Q9HCT0 | recombinant FGF22 thermal shift, SYPRO orange fluorescence; percent of sucrose octasulfate shift, DMSO zero | 1.5% of 340,000 active;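 active = melting point raised past a set limit in the mean and every replicate; inconclusive = no clear call; three in four hits are not shown here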
Target sequence (Q9HCT0 whole entry, looked up): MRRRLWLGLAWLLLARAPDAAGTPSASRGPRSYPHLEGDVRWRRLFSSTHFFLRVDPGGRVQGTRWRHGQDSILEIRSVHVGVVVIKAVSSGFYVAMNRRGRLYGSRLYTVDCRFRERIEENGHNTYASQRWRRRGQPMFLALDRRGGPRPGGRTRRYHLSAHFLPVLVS
Ecoli rRNA inh OD600 – also measured in Ecoli rRNA inh; calls as there; OD600 change, %; measured here: OD600 growth;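 optical density of the mix in the first replicate; 0 = DMSO median and -100 = no signal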
Ecoli rRNA inh RFP – also measured in Ecoli rRNA inh; calls as there; RFP signal change, %; measured here: RFP humanized mutant strains;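 first replicate; 0 = DMSO median and -100 = no signal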
The depositor's hits bear a star; i = inactive; ? = inconclusive; . = not tested or not shown; & = joins results of further samples. Some of the compounds tested; the hit share may differ from the screen's.

SMILES	Ecoli rRNA inh	Ecoli rRNA inh OD600	Ecoli rRNA inh RFP	RanGTP-Imp inh	Beta apoptosis	T cruzi repl	MLL AF4-AF9 inh	Calb FLC	ALR H2O2 inh	FGF22 binding
COc1ccc(C2=NN(C(=O)CSc3ncccn3)C(c3ccc(OC)cc3)C2)cc1 (centres undefined)	-15	-7	8.2	-2.0	.	23	9.2	-3	3	i
CCNC(=O)COC(=O)c1cc(=O)[nH]c2ccccc12	.	.	.	1.8	2	-26	.	8	-3	.
O=C(c1nc2ccc(Cl)cn2c1CNCC[C@@H]1C[C@@H]2C=C[C@H]1C2)N1CCCCCCC1	-43	-79	14	-0.5	-17	31	6.5	-10	-1	i
Cc1cc(=O)oc2cc(OCC(=O)NCC3CCC(C(=O)O)CC3)ccc12 (centres undefined)	5	5	-2.7	-1.2	6	-10	-0.6	3	-7	i
O=C(Cc1ccccc1)N1CCC2(CC1)NCCc1[nH]cnc12	9	22	1.3	1.2	-5	19	5.5	-2	-28	i
CCOC(=O)C(C(=O)OCC)c1c([N+](=O)[O-])c(=O)n2c3c(cccc13)CCC2	1	-10	2.2	5.6	-8	-1	1.2	-9	-9	i
O=C(CCN1C(=O)c2ccccc2C1=O)Nc1cccc(F)c1	5	5	-5.4	1.6	8	-3	7.5	-7	-4	i
CCOC(=O)CSC1=C(C#N)C(c2ccccc2OCC)C(C(=O)OCC)C(=O)N1 (centres undefined)	.	.	.	0.7	.	25	.	5	15	.
O=C(c1ccc2c(c1)OCO2)N1CCN=C1SCc1ccccc1	2	-14	-2.5	-2.2	-3	17	4.0	-8	93*	i
COc1ccc(-c2nc(C)ncc2-c2csc(C)n2)c(O)c1	.	.	.	5.3	-2	-12	.	-6	.	.
C=CCOc1ccc(CNc2nccs2)cc1OCC	.	.	.	3.4	-2	5	.	6	33	.
CC1(C)CC(OC(=O)c2ccccc2)CC(C)(C)N1	19	17	2.3	-3.5	-7	-3	.	-17	.	.
COc1ccc(-c2cc3ccccc3oc2=O)cc1	18	16	3.3	1.3	-9	-16	0.7	2	-10	i
C/C(=N/NC(=O)CNC(=O)COc1ccccc1)c1ccco1	5	7	-1.9	2.8	-1	-5	-1.9	28	.	i
COc1ccc(CNC(=O)c2cnc(C)cn2)c(OC)c1	.	.	.	-1.2	-4	-10	.	2	-3	.
CC1CCc2c(sc(NC(=O)CSc3nc4c(c(C(F)(F)F)n3)CCc3ccccc3-4)c2C(N)=O)C1 (centres undefined)	.	.	.	-2.5	-1	0	.	-4	.	.
O=C(CCn1c(=O)oc2ccc(Cl)cc21)N1CCN(c2ccccc2)CC1	-13	-15	1.9	1.1	-5	-5	3.5	6	35	i
O=C(c1ccc(Cl)cc1)C(CN1CCCC1)c1ccccc1 (centres undefined)	-9	3	-1.6	5.4	61	36	6.8	2	12	i
Cc1ccn2c(NC(=O)c3ccccc3)c(-c3ccccc3)nc2c1	-11	-12	-0.4	1.1	-5	-3	6.8	19	40	i
O=C(NCc1ccc2c(c1)OCO2)c1cnc2ccccn2c1=O	.	.	.	2.8	-14	-8	.	?	-2	.
Cc1ccc(NC2c3ccccc3C(=O)N2c2cccnc2)cc1 (centres undefined)	-5	-5	-1.1	-0.3	-5	-13	-32	4	?	i
O=C1CCN(Cc2ccccc2)C=C1c1cccc(O)c1	-4	5	-3.1	.	-2	.	-0.9	.	43	i
O=c1c(-c2ccc3c(c2)OCCO3)coc2cc(OC3OC(CO)C(O)C(O)C3O)ccc12 (centres undefined)	5	0	3.7	?	0	-22	-3.1	0	-20	i
CC1OC(C)(C)OC1C1CNc2nc(NC(=O)C(C)(C)C)[nH]c(=O)c2N1C(=O)c1cccnc1 (centres undefined)	.	.	.	-0.4	-1	-12	.	1	1	.
CC(C)CNC(=O)CN1c2cccc3cccc(c23)S1(=O)=O	0	2	-0.9	0.2	3	-5	-4.1	3	-13	i

Brought forward from above: 7 entries, then new ones.
SMILES	Ecoli rRNA inh	Ecoli rRNA inh OD600	Ecoli rRNA inh RFP	RanGTP-Imp inh	Beta apoptosis	T cruzi repl	MLL AF4-AF9 inh	Calb FLC	ALR H2O2 inh	FGF22 binding
Cc1ccn2c(NC(=O)c3ccccc3)c(-c3ccccc3)nc2c1	-11	-12	-0.4	1.1	-5	-3	6.8	19	40	i
O=C(NCc1ccc2c(c1)OCO2)c1cnc2ccccn2c1=O	.	.	.	2.8	-14	-8	.	?	-2	.
Cc1ccc(NC2c3ccccc3C(=O)N2c2cccnc2)cc1 (centres undefined)	-5	-5	-1.1	-0.3	-5	-13	-32	4	?	i
O=C1CCN(Cc2ccccc2)C=C1c1cccc(O)c1	-4	5	-3.1	.	-2	.	-0.9	.	43	i
O=c1c(-c2ccc3c(c2)OCCO3)coc2cc(OC3OC(CO)C(O)C(O)C3O)ccc12 (centres undefined)	5	0	3.7	?	0	-22	-3.1	0	-20	i
CC1OC(C)(C)OC1C1CNc2nc(NC(=O)C(C)(C)C)[nH]c(=O)c2N1C(=O)c1cccnc1 (centres undefined)	.	.	.	-0.4	-1	-12	.	1	1	.
CC(C)CNC(=O)CN1c2cccc3cccc(c23)S1(=O)=O	0	2	-0.9	0.2	3	-5	-4.1	3	-13	i
Cc1ccc(C(=O)N[C@H](C(=O)Nc2sccc2C(N)=O)C(C)C)cc1	-1	-1	7.1	1.1	-3	-10	0.4	11	.	i
Cc1onc(-c2ccccc2)c1C(=O)N/N=C/c1cc2c(cc1Cl)OCO2	5	-7	-1.4	1.7	0	-2	-8.4	?	-2	i
O=c1[nH]c(CSc2cccc[n+]2[O-])nc2ccccc12	13	20	0.0	?	-1	-10	1.3	5	-4	i
O=C(COC(=O)c1cncc(Br)c1)NCc1ccc(F)cc1	9	6	2.5	1.3	-3	-11	0.2	1	0	i
O=c1cc(Cl)[nH]n(-c2ccccc2)c1=O	-3	1	-1.0	-5.1	-5	-11	3.6	-20	-2	i
CCN(CC)C(=O)C(Oc1ccc(C)nc1[N+](=O)[O-])c1ccccc1 (centres undefined)	5	5	0.0	0.6	-4	11	-3.8	1	1	i
CCOc1ccc2sc(NS(=O)(=O)c3ccc(OC)c(OC)c3)nc2c1	.	.	.	-1.5	-5	-7	.	-9	-6	.
COc1ccc(-c2cc(C(F)F)n3ncc(C(=O)NCCCN4CCCC4=O)c3n2)cc1	-7	-1	-0.7	0.3	.	6	-20	-3	.	i
Brc1ccc(-c2csc(Nc3nc(-c4ccc(Br)cc4)cs3)n2)cc1	2	12	4.4	-1.9	-4	50	-15	0	4	i
COc1ccc(NC(=O)c2ccc(-n3nc(C)cc3C)cc2)cc1OC	.	.	.	-2.7	0	9	.	-2	.	.
CCN(c1ccccc1)S(=O)(=O)c1ccc(N)cc1	3	0	-5.6	1.2	.	-7	0.2	-4	24	i
Cc1ccccc1Cn1c(-c2ccc(=O)[nH]c2)nc2ccccc21	5	1	3.9	0.1	4	-3	0.9	-4	.	i
CC(NS(=O)(=O)c1ccc(N)cc1)C1CC2CCC1C2 (centres undefined)	-5	-10	-0.5	2.0	4	10	-2.7	-4	.	i
O=C(C[C@@H]1C/C=C\C[C@H](Cc2ccc(F)cc2)C(=O)OC[C@H]2CCCN2C1=O)N[C@H](CO)Cc1ccccc1	8	8	-7.5	.	6	.	.	.	1	i
O=C(Nc1ccnc(-c2ccncc2)n1)c1ccc(Cl)cc1	5	10	0.9	23*	-1	-1	-3.3	-10	-13	i
Cc1cnc(C(=O)OCC(=O)NCc2ccccc2)cn1	.	.	.	-1.2	-2	-9	.	-22	-2	.
C[C@@H]1CN([C@H](C)CO)C(=O)c2cc(NS(=O)(=O)c3cn(C)cn3)ccc2O[C@H]1CN(C)C(=O)Nc1ccccc1	1&12	10&10	-2.7&-2.2	.	1	.	-5.4&-3.8	.	4	i
CC(Oc1ccc(F)cc1)C(=O)Nc1ccccc1N1CCCCC1 (centres undefined)	-2	-8	-3.1	-8.8	2	25	-4.5	3	8	i
Cc1cc(C)c(C#N)c(OCC(=O)c2ccccc2)n1	.	.	.	0.1	0	11	.	4	3	.
COCCNC(=S)N(CCc1c(C)[nH]c2ccc(F)cc12)Cc1ccc(C)cc1	-12	-3	3.7	4.2	3	23	-12	-8	-20	i
Cc1cc(C)c(S(=O)(=O)/N=C2\C=C(NS(=O)(=O)c3ccccc3)C(=O)c3ccccc32)c(C)c1	5	12	2.3	1.2	.	-7	-2.0	36	-32	i
CCCC(C(=O)NC1CCCCC1)N(CC1CCCO1)C(=O)CNS(=O)(=O)c1ccc(F)cc1 (centres undefined)	.	.	.	?	-1	0	.	-6	-15	.
CCN(CC)C(=O)C1=C(C)NC(=O)NC1c1ccccc1F (centres undefined)	.	.	.	0.9	1	-13	.	20	-6	.
Cc1cccc2cc(CN(Cc3nnnn3Cc3ccco3)C3CCCC3)c3nnnn3c12	.	.	.	?	13	50	.	7	-2	.
CN(Cc1ccccc1)S(=O)(=O)c1ccc2c(c1)n(C)c(=O)n2C	.	.	.	0.2	1	5	.	-1	-19	.

(next part)
SMILES	Ecoli rRNA inh	Ecoli rRNA inh OD600	Ecoli rRNA inh RFP	RanGTP-Imp inh	Beta apoptosis	T cruzi repl	MLL AF4-AF9 inh	Calb FLC	ALR H2O2 inh	FGF22 binding
CC(C)CCn1c(NCCc2ccccc2)nc2c1c(=O)n(C)c(=O)n2C	-9	-7	4.6	1.8	5	24	6.2	7	7	i
COc1ccccc1OCc1ccc(C(=O)N2CCN3CCCC3C2)cc1 (centres undefined)	.	.	.	2.0	0	15	.	-15	9	.
COc1cccc(/C=N\NC(=O)c2ccc(C)nc2)c1	16	12	1.5	-1.0	2	1	0.3	6	.	.
c1ccc(CN2CCN(Cc3c[nH]c4ccccc34)CC2)cc1	2	8	1.0	-2.9	87*	60*	4.6	-20	-3	i
COc1ccc(/C=N/N=C/c2ccc(OC)c(OC)c2)cc1OC	.	.	.	-0.3	0	-6	.	-5	.	.
O=C(Nc1cccn(Cc2ccccc2Cl)c1=O)NC1CCCCC1	-13	-22	0.4	3.9	-1	4	-1.8	22	-62	i
COc1ccc(Cl)cc1S(=O)(=O)NCc1cccnc1	.	.	.	2.8	4	-6	.	-1	-2	.
CC(=O)Nc1ccc(NC(=O)COC(=O)[C@@H]2CCCN2C(=O)c2cccs2)cc1	0	-2	5.4	.	-1	.	5.6	.	3	i

Screens as filed in PubChem BioAssay.
